Compound activity deposited in PubChem by National Center for Advancing Translational Sciences (NCATS).
CtBP-E1A inh – qHTS Assay for Inhibitors of the CtBP/E1A Interaction; CtBP / adenovirus E1A interaction (AlphaScreen); AlphaScreen GST-E1A/His-CtBP binding, 1536-well; hits give low values; control for the full effect not named in the record; activity change, % (no concentration beside the values); 340,000 compounds, 0.49% hits; in the data active means activity change below about -65%; inconclusive means about -30% to -65%; inactive means above about -30%; also: % is scaled to controls: 0 for no effect and ±100 for the full control effect
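Homogeneous bead-based format: GST-tagged E1A captured on glutathione donor beads, His-tagged CtBP on nickel acceptor beads; compounds precede bead addition by 2 h at 37 °C.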
Six1-Eya2 inh – qHTS Assay for Inhibitors of the Six1/Eya2 Interaction; Homeobox protein SIX1 (Homo sapiens) + Protein phosphatase EYA2 (Homo sapiens), …; AlphaScreen GST-Six1/His-Eya2 binding, biochemical; hits give low values; control for the full effect not named in the record; activity change, % (test concentration not listed); 360,000 compounds, 0.56% hits; AID 651725, 2012; in the data active = activity change below about -65%; inconclusive = about -30% to -65%; inactive = above about -30%; also: % is scaled to controls: 0 for no effect and ±100 for the full control effect
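Six1/Eya2 binding was read as AlphaScreen signal after compounds were pinned into GST-Six1 plus His-tagged Eya2 (5X stock 250/500 nM) in pH 8.0 Tris/NaCl/TCEP buffer, beads added, then incubated 1 h, 37 C, dark.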
D2 agonist – Beta-Arrestin HTS for Positive Allosteric Modulators of the Human D2 Dopamine Receptor: Agonists; AID 624465, 2012; activation, % (concentration not given with the values); D(2) dopamine receptor (Homo sapiens), P14416; 360,000 compounds, 0.084% hits; DiscoveRx PathHunter D2 beta-arrestin, luminescence, 90 min; 100% = 57 uM dopamine signal; in the data active = activation above about 40%; inconclusive = about 15% to 40%; inactive = below about 15%; also: the text of the record calls up to 30% inactive
Target sequence (P14416 whole entry, looked up): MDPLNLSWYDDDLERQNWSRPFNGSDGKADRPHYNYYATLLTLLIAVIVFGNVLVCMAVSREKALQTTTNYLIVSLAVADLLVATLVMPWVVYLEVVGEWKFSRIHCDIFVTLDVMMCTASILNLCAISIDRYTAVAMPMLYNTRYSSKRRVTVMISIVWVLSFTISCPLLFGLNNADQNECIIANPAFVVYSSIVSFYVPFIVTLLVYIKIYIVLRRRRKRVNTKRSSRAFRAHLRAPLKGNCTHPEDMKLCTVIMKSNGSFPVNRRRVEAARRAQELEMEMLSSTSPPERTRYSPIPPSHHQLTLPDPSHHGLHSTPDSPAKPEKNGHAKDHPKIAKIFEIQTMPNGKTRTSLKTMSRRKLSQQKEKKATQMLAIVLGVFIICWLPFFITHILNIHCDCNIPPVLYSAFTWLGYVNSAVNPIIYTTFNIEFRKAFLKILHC
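Agonist mode: compounds alone added to overnight-plated D2 PathHunter cells for 90 min at 37 C, with 57 uM final dopamine (EC100) defining full response. Beta-arrestin recruitment detected by chemiluminescent reagent, read after 1 h at ambient temperature.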
TRPML1 agonist – qHTS for Agonists of the Human Mucolipin Transient Receptor Potential 1 (TRPML1); Mucolipin-1 (Homo sapiens), Q9GZU1; TRPML1-expressing cells, Ca2+ dye fluorescence, FDSS; host cell line not named in the record; reference of the full effect not given here; activation, % (test concentration not listed); 410,000 compounds, 0.12% hits; in the data active = activation above about 50%; inconclusive = about 30% to 50%; inactive = below about 30%; also: 0% is about no effect; the text of the record puts the active cut at 80%
Target sequence (Q9GZU1 whole entry, looked up): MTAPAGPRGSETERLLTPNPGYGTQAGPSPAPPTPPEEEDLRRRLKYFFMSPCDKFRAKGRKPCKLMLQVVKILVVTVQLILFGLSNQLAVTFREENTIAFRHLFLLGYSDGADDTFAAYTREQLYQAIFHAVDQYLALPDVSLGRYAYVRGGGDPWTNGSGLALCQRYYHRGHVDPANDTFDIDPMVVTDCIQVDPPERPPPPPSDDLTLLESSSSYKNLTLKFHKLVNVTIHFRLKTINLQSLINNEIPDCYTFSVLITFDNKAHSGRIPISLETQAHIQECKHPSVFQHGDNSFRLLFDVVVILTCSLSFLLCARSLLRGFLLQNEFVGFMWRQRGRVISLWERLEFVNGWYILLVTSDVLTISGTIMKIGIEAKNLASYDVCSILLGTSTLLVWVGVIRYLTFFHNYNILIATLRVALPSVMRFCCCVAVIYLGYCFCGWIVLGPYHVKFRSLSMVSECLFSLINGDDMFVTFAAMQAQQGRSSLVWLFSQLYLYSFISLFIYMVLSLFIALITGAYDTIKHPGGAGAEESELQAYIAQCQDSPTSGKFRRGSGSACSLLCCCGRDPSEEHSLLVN
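Kinetic FDSS Ca2+ read in Tet-induced TRPML1-DL cells (ABD Ca8 dye plus quencher, 45-90 min RT loading): baseline, then compound, then 110 s agonist window; EC80 agonist 54-4 at 4uM final added afterwards for a 110 s antagonist window.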
PINK1 expr mod – A Quantitative High throughput Screen to Identify Chemical Modulators of PINK1 Expression | 410,000 compounds, 0.2% hits | Potency, µM (doses to about 76.6 µM), inactives show top-dose activation (PINK1 increase), hits mostly activators | PINK1 immunofluorescence, high-content cytometry, 24 h; active = well fitted activation curve with a large enough effect; inconclusive = small, poorly fitted or top-dose-only effect; inactive = flat fitted curve, though single readings scatter; cell line not stated here;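 also: potency is read from the fitted curve at half-maximal effect; % of control where 0% means no effect; nearly all actives have a fitted effect of over 65% in size; a mitochondrial uncoupler was the plate control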
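PINK1 protein level read as immunofluorescence by microplate cytometer in a fixed, stained stable cell line after 24 h exposure to five compound concentrations, with CCCP as control.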
D2 potentiator – Beta-Arrestin HTS for Positive Allosteric Modulators of the Human D2 Dopamine Receptor: Potentiators; AID 624464, 2012; D(2) dopamine receptor (Homo sapiens), P14416; 360,000 compounds, 0.23% hits; DiscoveRx D2 beta-arrestin cells, luminescence, 90 min; 100% = 57 uM dopamine signal; potentiation, % (concentration not given with the values); active = potentiation of 50% or more; inconclusive = 30% to 50%; inactive = 30% or less;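 also: tested on top of an EC20 dose of dopamine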
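D2 cells co-treated with compound plus 50 nM dopamine (EC20) for 90 min at 37 deg C to detect potentiation. Beta-arrestin recruitment was read as enzyme-fragment luminescence after 1 h at ambient temperature. Full response was set by 57 uM dopamine.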
The depositor's hits bear a star; & = joins results of further samples; [ ] = remark or other dose. An unsorted share of the library. About 1.3% of those tested had a hit in this group.

Results for Cc1ccc(C2=CC(c3ccc(N(C)C)cc3)n3nnnc3N2)cc1 (configuration not stated) ?
CtBP-E1A inh: -10; Six1-Eya2 inh: -2; D2 agonist: -0.3; TRPML1 agonist: 0.0; PINK1 expr mod: 6.6%; D2 potentiator: -1

How did CCc1ccccc1OCC(=O)Nc1ccc(N2CCCC2)cc1C do in these assays?
CtBP-E1A inh: -11; Six1-Eya2 inh: 10; D2 agonist: -4.7; TRPML1 agonist: 0.1; PINK1 expr mod: 28µM*; D2 potentiator: -24

How did COCCNC(=O)c1ccccc1NC(=O)CN(c1ccc2c(c1)OCO2)S(C)(=O)=O do in these assays?
CtBP-E1A inh: -12; Six1-Eya2 inh: 1; D2 agonist: -4.3; TRPML1 agonist: -0.5; PINK1 expr mod: -4.3%; D2 potentiator: -13

Results for Cc1ccc2c(C)c(C(=O)N3CCC(N4CCC(C(=O)NC5CC5)CC4)CC3)oc2c1 ?
CtBP-E1A inh: -13; Six1-Eya2 inh: 3; D2 agonist: 0.7; TRPML1 agonist: 0.7; PINK1 expr mod: -0.8%; D2 potentiator: -6

What do the screens show for `O=C(O)/C=C/C(=O)NNC(=O)c1ccc(Br)cc1`?
CtBP-E1A inh: 3; Six1-Eya2 inh: -4; D2 agonist: -1.6; TRPML1 agonist: -0.3; PINK1 expr mod: 1.2%; D2 potentiator: -22

Results for CC(=O)N1c2ccccc2C(=O)C1N1CCCCC1 (configuration not stated) ?
CtBP-E1A inh: -1; Six1-Eya2 inh: 2; D2 agonist: -3.9; TRPML1 agonist: -0.7; PINK1 expr mod: -2.4%; D2 potentiator: -19

How did CCOc1ccc(C(=O)CSc2nnc3ccccn23)cc1 do in these assays?
CtBP-E1A inh: -4; Six1-Eya2 inh: -13; D2 agonist: -4.6; TRPML1 agonist: 0.0; PINK1 expr mod: -0.7%; D2 potentiator: -2

Results for CSCC[C@H](NC(=O)N1CCn2c1nc1ccccc12)C(=O)N[C@@H](C(=O)O)c1ccccc1 ?
CtBP-E1A inh: 2; Six1-Eya2 inh: -2; D2 agonist: 1.8; PINK1 expr mod: 0.0%; D2 potentiator: -8

What do the screens show for `CC(=O)NC(CCCNC(=S)NC1CCCCC1)C(=O)O` (configuration not stated)?
CtBP-E1A inh: 3; Six1-Eya2 inh: 0; D2 agonist: -3.4; TRPML1 agonist: -0.4; PINK1 expr mod: 2.6%; D2 potentiator: -3

What do the screens show for `CC(=O)CC(=O)Nc1cccc2c1CCCC2`?
CtBP-E1A inh: -5; Six1-Eya2 inh: -3; D2 agonist: 0.0; TRPML1 agonist: 2.1; PINK1 expr mod: 0.1%; D2 potentiator: -3

How did Cc1cc(C)c(NC(=O)c2cc3c(nc4sccn43)s2)c(C)c1 do in these assays?
CtBP-E1A inh: -8; Six1-Eya2 inh: -14; D2 agonist: 1.5; TRPML1 agonist: 0.7; PINK1 expr mod: -2.2%; D2 potentiator: 0

How did COc1ccc(CCN2C(=O)c3ccccc3NC2c2cc(Cl)c(O)c(OC)c2)cc1 (configuration not stated) do in these assays?
CtBP-E1A inh: -3; Six1-Eya2 inh: -15; D2 agonist: 2.2; TRPML1 agonist: 2.3; PINK1 expr mod: 13%; D2 potentiator: -3

Results for CCOC(=O)CCCn1ccc2cc(S(=O)(=O)N3CCCC3)ccc21 ?
CtBP-E1A inh: 0; Six1-Eya2 inh: -1; D2 agonist: 0.2; TRPML1 agonist: 0.9; PINK1 expr mod: -0.3%; D2 potentiator: 2

What do the screens show for `O=C(N/N=C/c1cc([N+](=O)[O-])ccc1Cl)c1cnccn1`?
CtBP-E1A inh: -12; Six1-Eya2 inh: -5; D2 agonist: -1.5; TRPML1 agonist: -0.5; PINK1 expr mod: 2.7%; D2 potentiator: -3

How did CC(C)(C)NC(=O)CSc1nnc(CN2CCCCCC2=O)n1-c1ccccn1 do in these assays?
CtBP-E1A inh: -4; Six1-Eya2 inh: 9; D2 agonist: 0.4; TRPML1 agonist: 2.0; PINK1 expr mod: -1.4%; D2 potentiator: -3

How did O=C(NCc1ccccn1)C1CCN(S(=O)(=O)N2CCCCC2)CC1 do in these assays?
CtBP-E1A inh: 5; Six1-Eya2 inh: -7; D2 agonist: 0.2; TRPML1 agonist: 0.7; PINK1 expr mod: 5.7%[38.3 µM]; D2 potentiator: 4

Results for O=C(N/N=C/c1ccco1)/C(=C/c1cccc([N+](=O)[O-])c1)NC(=O)c1ccccc1 ?
CtBP-E1A inh: -13; Six1-Eya2 inh: -9; D2 agonist: -3.6; TRPML1 agonist: 0.4; PINK1 expr mod: -1.4%[38.3 µM]; D2 potentiator: -6

What do the screens show for `O=C1CCN(S(=O)(=O)c2ccccc2)CCN1CCOCc1cccc(F)c1`?
CtBP-E1A inh: 6; Six1-Eya2 inh: 2; D2 agonist: -1.5; TRPML1 agonist: -0.5; PINK1 expr mod: -0.2%; D2 potentiator: -3

What do the screens show for `COC(=O)c1cc(S(=O)(=O)NCCc2sccc2C)c[nH]1`?
CtBP-E1A inh: 11; Six1-Eya2 inh: -5; D2 agonist: -2.2; TRPML1 agonist: 0.1; PINK1 expr mod: -0.4%; D2 potentiator: -28

What do the screens show for `COc1ccc(N(CC(=O)Nc2c(C)n(C)n(-c3ccccc3)c2=O)S(=O)(=O)c2ccccc2)cc1OC`?
CtBP-E1A inh: 8; Six1-Eya2 inh: 8; D2 agonist: -3.4; TRPML1 agonist: -0.1; PINK1 expr mod: -2.4%; D2 potentiator: -8

Results for Nc1nonc1-c1noc(CCCCCN2C(=O)c3ccccc3C2=O)n1 ?
CtBP-E1A inh: -2; Six1-Eya2 inh: -1; D2 agonist: -0.6; TRPML1 agonist: 0.3; PINK1 expr mod: 0.4%; D2 potentiator: -15

How did COc1ccc(N/N=C(\C#N)C(=N)SCc2ccccc2)cc1 do in these assays?
Six1-Eya2 inh: -9; D2 agonist: -3.0; TRPML1 agonist: 1.6; PINK1 expr mod: -0.4%; D2 potentiator: -23

Results for COc1ccc(-c2[nH]ncc2CN(C)C(C)c2ccon2)cc1F (configuration not stated) ?
CtBP-E1A inh: 3; Six1-Eya2 inh: -7; D2 agonist: 3.4; TRPML1 agonist: 0.0; PINK1 expr mod: 1.3%; D2 potentiator: -9

Results for CCOC(=O)CC(=O)CSc1nc2ccccc2c(=O)n1-c1ccc(C(=O)NCCOC)cc1 ?
CtBP-E1A inh: 3; Six1-Eya2 inh: 0; D2 agonist: 0.4; TRPML1 agonist: 2.1&-0.1; PINK1 expr mod: 1.0%; D2 potentiator: 6

How did CC(C)c1ccc(S(=O)(=O)Nc2ccc(O)c(Sc3ncn[nH]3)c2)cc1 do in these assays?
CtBP-E1A inh: -2; Six1-Eya2 inh: 0; D2 agonist: 14; TRPML1 agonist: -0.8; PINK1 expr mod: -0.2%; D2 potentiator: inconclusive

How did COc1cc2c(cc1OC)-c1cc(NC3CCCCCC3)nc(=O)n1CC2 do in these assays?
CtBP-E1A inh: inconclusive; Six1-Eya2 inh: -71*; D2 agonist: -2.0; TRPML1 agonist: 1.6; PINK1 expr mod: inconclusive; D2 potentiator: -19

Results for Nc1nc(-c2ccccc2Br)cs1 ?
CtBP-E1A inh: -6; Six1-Eya2 inh: -1; D2 agonist: -2.5; TRPML1 agonist: -0.1; PINK1 expr mod: -1.5%; D2 potentiator: -5

What do the screens show for `CCCCNC(=O)COCc1cc(-c2ccc3c(c2)OCO3)on1`?
CtBP-E1A inh: 1; Six1-Eya2 inh: 2; D2 agonist: 3.4; TRPML1 agonist: -0.6; PINK1 expr mod: -0.2%; D2 potentiator: -5

What do the screens show for `CC(=O)c1ccc(OCC(=O)c2ccc(-c3ccccc3)cc2)cc1`?
CtBP-E1A inh: 7; Six1-Eya2 inh: 13; D2 agonist: 0.7; TRPML1 agonist: 1.4; PINK1 expr mod: 1.2%; D2 potentiator: 0

How did COc1cc2c(cc1NC(=O)CSc1cccc[n+]1[O-])oc1ccccc12 do in these assays?
CtBP-E1A inh: -6; Six1-Eya2 inh: -7; D2 agonist: -3.6; TRPML1 agonist: -0.4; PINK1 expr mod: 0.6%; D2 potentiator: -24

Nothing new here: 5 of the compounds above.
How did O=C(NCc1ccccn1)C1CCN(S(=O)(=O)N2CCCCC2)CC1 do in these assays?
CtBP-E1A inh: 5; Six1-Eya2 inh: -7; D2 agonist: 0.2; TRPML1 agonist: 0.7; PINK1 expr mod: 5.7%[38.3 µM]; D2 potentiator: 4

Results for O=C(N/N=C/c1ccco1)/C(=C/c1cccc([N+](=O)[O-])c1)NC(=O)c1ccccc1 ?
CtBP-E1A inh: -13; Six1-Eya2 inh: -9; D2 agonist: -3.6; TRPML1 agonist: 0.4; PINK1 expr mod: -1.4%[38.3 µM]; D2 potentiator: -6

What do the screens show for `O=C1CCN(S(=O)(=O)c2ccccc2)CCN1CCOCc1cccc(F)c1`?
CtBP-E1A inh: 6; Six1-Eya2 inh: 2; D2 agonist: -1.5; TRPML1 agonist: -0.5; PINK1 expr mod: -0.2%; D2 potentiator: -3

What do the screens show for `COC(=O)c1cc(S(=O)(=O)NCCc2sccc2C)c[nH]1`?
CtBP-E1A inh: 11; Six1-Eya2 inh: -5; D2 agonist: -2.2; TRPML1 agonist: 0.1; PINK1 expr mod: -0.4%; D2 potentiator: -28

What do the screens show for `COc1ccc(N(CC(=O)Nc2c(C)n(C)n(-c3ccccc3)c2=O)S(=O)(=O)c2ccccc2)cc1OC`?
CtBP-E1A inh: 8; Six1-Eya2 inh: 8; D2 agonist: -3.4; TRPML1 agonist: -0.1; PINK1 expr mod: -2.4%; D2 potentiator: -8

The list goes on:
What do the screens show for `COc1ccc(/C=N/NC(=O)C(C)n2cnc3ccccc3c2=O)cc1OC` (configuration not stated)?
CtBP-E1A inh: 15; Six1-Eya2 inh: -6; D2 agonist: -1.2; TRPML1 agonist: -0.6; PINK1 expr mod: 0.6%; D2 potentiator: -19

Results for O/N=C/c1cc(Cl)ccc1OCc1ccccc1Cl ?
CtBP-E1A inh: 5; Six1-Eya2 inh: -3; D2 agonist: -1.3; TRPML1 agonist: -1.1; PINK1 expr mod: 1.6%; D2 potentiator: -4

What do the screens show for `CCN(CC)C(=O)c1[nH]cnc1C(=O)Nc1cccc(C)c1`?
CtBP-E1A inh: 4; Six1-Eya2 inh: 3; D2 agonist: -3.7; TRPML1 agonist: -0.1; PINK1 expr mod: -0.3%; D2 potentiator: -20

What do the screens show for `CCOC(=O)C1=CC[C@@H](c2ccccc2Cl)N(S(=O)(=O)c2ccc(C)cc2)[C@H]1C(=O)OCC`?
CtBP-E1A inh: -3; Six1-Eya2 inh: -6; D2 agonist: -1.2; TRPML1 agonist: 0.9; PINK1 expr mod: -0.8%; D2 potentiator: -10
